Compound activity: PubChem BioAssay, ICCB-Longwood Screening Facility, Harvard Medical School
Sa helicase inh: S. aureus DNA helicase inhibition; purified S. aureus helicase, fluorescence unwinding assay; about half of the hits fall short of the stated cut; inhibition, %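 (tested at about 80 µM)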; hit rate 0.05% among 120,000; AID 485395;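 active = both duplicates at 50% or more, or one of them with a favoured structure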;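 also: 0% = mean of negative control wells and 100% = mean of positive control wells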
MgrA DNA FP: alters Staphylococcus aureus MgrA binding to DNA. inhibition, %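 (about 10 µg/mL by stock and volumes)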. hit rate 0.13% among 84,000. AID 602314. fluorescence polarization;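 active = above 50% in either of two replicates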;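 also: 0% = protein plus DNA without compound and 100% = DNA alone without protein; higher means less MgrA bound to DNA so lower polarization; one replicate is shown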
Active calls of the source: *; / = no result given. The list is partial. The share of hits here may be higher or lower than overall.

Each structure is followed by: MgrA DNA FP, Sa helicase inh
CC1(O)NC(=O)C2(C#N)C(C#N)(C#N)C12c1ccccc1 (stereo not drawn)
  -0.5, 0.0
c1csc(Cc2nc3ccccc3[nH]2)c1
  0.9, -21.0
Cc1ccc(NC(=O)N2c3ccccc3Sc3ccccc32)c(C)c1
  0.8, 6.0
COC(=O)c1ccccc1NC(=O)C1CC(c2ccccc2OC)=NO1 (stereo not drawn)
  /, -3.0
COc1ccc(-c2coc3cc4oc(=O)ccc4cc23)cc1
  /, -17.0
Cc1c2c(nc3c(C(=O)NC4CCCC(C)C4C)cnn13)CCCC2 (stereo not drawn)
  2.1, 3.0
O=C(CSc1nnc(-c2ccc(F)cc2)o1)N(Cc1nc2ccccc2c(=O)[nH]1)CC1CCCO1 (stereo not drawn)
  /, -19.0
CC1(N2CCOCC2)CC(=O)N(c2ccccc2)O1 (stereo not drawn)
  -0.2, 6.0
CN(Cc1nc2ccccc2c(=O)[nH]1)C(=O)c1cc(Br)cc(Br)c1O
  /, -1.0
Cc1ccc(S(=O)(=O)NCc2ccccc2)cc1
  2.0, -4.0
NC1=NC1C(=O)Nc1ccccc1 (stereo not drawn)
  /, 7.0
c1ccc(-c2ccccc2-n2cnnn2)cc1
  -2.2, -1.0
COc1cc2c(cc1OC)CN1C(=S)N(C)C(=O)C1C2 (stereo not drawn)
  /, 21.0
COc1ccccc1C1CCN(C(=O)[C@@H](C)N2CCN(c3ccc(C(F)(F)F)cn3)CC2)CC1
  /, -17.0
Cc1cc(-c2noc(-c3cccs3)n2)no1
  -0.8, /
CCC(C)n1nccc1N (stereo not drawn)
  /, 6.0
Cc1cc(C)nc(N2CCC(C(=O)Nc3nnc(C(C)C)s3)CC2)n1
  0.9, 3.0
S=P(N1CC1)(N1CC1)N1CC1
  2.5, /
CCOc1ccc(NC(=S)N2C(C)CCCC2C)cc1 (stereo not drawn)
  -0.2, 4.0
COc1ccccc1-c1nc(-c2cccc(C(F)(F)F)c2)no1
  0.8, /
Cc1cc(Cl)cc(Cl)c1CNC(=O)C(C)C
  -2.1, /
O=P1(NCCCn2ccnc2)C=C(c2ccccc2)OC(c2ccccc2)=C1
  /, -16.0
COC(=O)c1cc(-c2ccc(OC)cc2)n[nH]1
  2.8, 20.0
O=C1CSC(c2cccnc2)N1CCN1C(=O)CSC1c1cccnc1 (stereo not drawn)
  -2.2, /
FC(F)(F)c1ccc(N=Cc2ccco2)cc1
  0.3, -22.0
C/C=C/C1OCC2(CO)C(C)C=C(C)C1C2C (stereo not drawn)
  /, -8.0
CCN1C(=O)/C(=C/C=C2\N(C)c3c(ccc4cccnc34)C2(C)C)SC1=S
  0.7, 3.0
C/C(N)=C(/C#N)C(=O)CSc1nc(-c2ccccc2)cn1N
  /, -20.0
CC(=O)Nc1ccc(/C=N/N2CCCCC2)cc1
  /, 8.0
O=C(NC1CCCC1)c1ccc(COc2ccccc2Br)o1
  /, 33.0

(listing goes on)
Each structure is followed by: MgrA DNA FP, Sa helicase inh
CCOC(=O)C(Cc1c[nH]c2ccccc12)NC(=O)c1cc2ccccc2oc1=O (stereo not drawn)
  -0.9, /
Cc1sc(-c2cccs2)nc1-c1ccccc1
  /, 5.0
O=C(CC(c1ccccc1)c1ccco1)N1CCCCC1 (stereo not drawn)
  7.0, 3.0
CC12CC(C)(C)C(C#N)(C(N)=C1C#N)C(=C(C#N)C#N)N2 (stereo not drawn)
  1.1, 0.0
Cc1csc(=O)n1CCC(=O)OCc1cc(Cl)cc2c1OCOC2
  /, 13.0
COc1cc(-c2nc(-c3nonc3N)no2)cc(OC)c1OC
  /, -10.0
Cn1c(=O)n(C)c2cc(Nc3cc(SCc4ccccc4)ncn3)ccc21
  /, -31.0
COc1ccc(C(=O)N/N=C(\Cc2ncc[nH]2)c2ccccc2)cc1
  /, -3.0
O=S(=O)(c1ccc(F)cc1)N1CCCc2ccccc21
  /, 14.0
C=CCN1C(=O)/C(=C2\SC(=S)N(CCc3ccc(OC)cc3)C2=O)c2ccccc21
  /, -12.0
O=C(c1cccs1)N1CCCN(CC(O)COc2ccc(Cl)c(Cl)c2)CC1 (stereo not drawn)
  -2.5, /
CCOC(=O)c1c(-c2cccs2)csc1NC(=O)c1cc2ccccc2oc1=O
  3.6, /
Cc1ccc(-c2nnc3c4cnn(-c5ccccc5)c4ncn23)cc1
  3.4, 11.0
Cc1cc(Oc2ccc(Cl)cc2)nc(-c2ccccn2)n1
  /, 29.0
COc1cccc(N2CCN(C(=O)CCCn3sc4ccccc4c3=O)CC2)c1
  /, 4.0
CCc1c(C)c(C#N)c2nc3ccccc3n2c1-n1cnc2ccccc21
  /, -16.0
Cc1cc(OCC(=O)NCc2cccnc2)c(C)cc1Br
  3.5, 10.0
O=C(Nc1cccc(-c2nc3ccccc3o2)c1)C1=COCCO1
  /, 9.0
CC(=O)N/C(=N/c1nc(C)cc(C)n1)Nc1cccc(C)c1
  /, -29.0
Fc1ccccc1CCNc1c2c(nc3ncnn13)CCCC2
  0.9, 0.0
CNC(=O)/C(=N\O)c1ccccc1
  /, 6.0
O=C(Nc1cccc(Cl)c1)NC1Cc2ccccc2C1
  -3.9, /
CN(C)c1cccc(N2C(=S)SC3CS(=O)(=O)CC32)c1 (stereo not drawn)
  -0.9, 7.0
CCCCN1C(=O)c2ccc(C(=O)NCc3ccco3)cc2C1=O
  3.0, -10.0
Cc1ccc(-c2csc(-c3ccc(Cl)cc3)n2)c(C)c1
  -1.2, /
O=C(CSc1nc2ccccc2c(=O)[nH]1)c1ccc(O)cc1O
  -0.8, 15.0
O=C(CN1CCN(CN2C(=O)NC3(CCCC3)C2=O)CC1)Nc1ccc(Cl)c(C(F)(F)F)c1
  /, -4.0
O=C(O)CSCC(=O)NC1CCCCNC1=O (stereo not drawn)
  /, -29.0
C=CCNc1nc(N)c(C(=O)Nc2cc(C)on2)s1
  /, 5.0
Cc1ccc(NC(=O)CSc2nncn2N)cc1C
  1.9, -2.0

Next section
Each structure is followed by: MgrA DNA FP, Sa helicase inh
O=C(N/N=C/c1ccncc1)c1ccccc1
  -0.1, 6.0
O=C(OCN1C(=O)c2ccccc2C1=O)C1CCN(S(=O)(=O)c2ccc3c(c2)OCCO3)CC1
  /, -2.0
CC(C)c1ccc(OCC(=O)NC(C)c2ccccc2)cc1 (stereo not drawn)
  -3.5, 2.0
CS(=O)(=O)c1ccc(Cl)c(N)c1
  /, -11.0
CC1=C(C#N)C(c2ccc3c(c2)CCO3)C2=C(CCCC2=O)N1 (stereo not drawn)
  -1.7, /
O=C(c1c(-c2ccccc2)oc2ccc(O)cc12)N1CCCCC1
  /, -13.0
CCCN(C(=O)C(C)(C)C)c1nc(-c2ccccc2)cs1
  /, -17.0
COc1ccc(CN=C(N)N=C(N)N)cc1
  0.8, 2.0
Cc1ccnc(NC(c2ccco2)c2c(C)[nH]c3ccccc23)c1 (stereo not drawn)
  /, 16.0
CN(c1ccccc1)S(=O)(=O)c1ccc(C(=O)Nc2ccc3c(c2)C(=O)c2ccccc2C3=O)cc1
  2.6, /
Cc1ccc(C)n1-c1sccc1C(=O)CC#N
  3.6, /
Cn1c(O)c(N=N)c2ccccc21
  /, 2.0
Cc1ccc(-c2cc(Cc3ccc(N(C)C)cc3)c(=O)[nH]n2)cc1
  /, 39.0
O=C(O)C1CC(=O)N(CCc2c[nH]c3ccccc23)C1 (stereo not drawn)
  -1.4, /
Cc1ccc2nc(N=C(N)N)nc(C)c2c1
  /, 20.0
CCn1c(SCC(=O)NCCc2ccccc2)nnc1-c1c[nH]c2ccccc12
  -3.9, 11.0
CCOC(=O)c1cccc(NS(=O)(=O)c2ccc3c(c2)CCCN3C(C)=O)c1
  /, 28.0
O=C1CC(c2ccc(F)cc2)CC(O)=C1C1NCCc2ccccc21 (stereo not drawn)
  0.9, /
N#C/C=C(\Sc1nc2ccccc2o1)c1ccccc1
  0.4, -13.0
CC1CCc2c(sc3nc(-c4cccs4)oc(=O)c23)C1 (stereo not drawn)
  4.0, /
CCOC(=O)C1=C(C)N=c2s/c(=C3\C(=O)N(CC)c4ccccc43)c(=O)n2C1c1ccc(OC)cc1 (stereo not drawn)
  3.3, /
CCc1ccc(NC(=O)CCC(=O)Nc2ccc3nc(N4CCCCC4)cc(C)c3c2)cc1
  1.3, 3.0
O=C(NCCc1ccsc1)c1cc2c(s1)-c1ccccc1OC2
  0.1, 14.0
S=c1[nH]nc(Cn2cnc3ccccc32)n1-c1ccccc1Cl
  /, -1.0
Cc1cc(C)n(-c2nc(C)nc3sc4c(c23)CCC4)n1
  -2.8, -5.0
Cc1c(C(=O)NCc2ccccc2)oc2ccccc12
  0.0, 1.0
Cc1ccccc1OCC(=O)Oc1ccc(-c2cnc3ccccc3n2)cc1
  /, 5.0
O=c1cc(Nc2cccc(Br)c2)[nH]c(=O)[nH]1
  -2.7, 8.0
CC1CC(C)CN(CC(O)COCc2ccccc2F)C1 (stereo not drawn)
  -1.4, -5.0
Cn1c(SCC(=O)Nc2ccc3c(c2)OCCO3)nnc1C(F)(F)F
  /, -11.0

3 of these compounds, reformatted:
Structure | MgrA DNA FP | Sa helicase inh
O=C(Nc1cccc(Cl)c1)NC1Cc2ccccc2C1 | -3.9 | /
Cc1sc(-c2cccs2)nc1-c1ccccc1 | / | 5.0
CCc1c(C)c(C#N)c2nc3ccccc3n2c1-n1cnc2ccccc21 | / | -16.0

More structures:
Each structure is followed by: MgrA DNA FP, Sa helicase inh
COc1cccc2c1oc(=O)c1c(NC(C)=O)nc3c(c12)CCCCC3
  0.0, 27.0
CC1CCN(c2ccc3nnc(CCC(=O)O)n3n2)CC1
  /, 13.0
Cc1csc(=O)n1CCOC(=O)c1ccc(Br)cc1
  /, 5.0
Fc1c(CN2CCOCC2)cccc1CN1CCOCC1
  -2.3, /
c1ccc2c(c1)ccc1oc(-c3ccn[nH]3)cc12
  0.2, /
CC(NCc1ccc(OCc2ccc(F)cc2)cc1)C(=O)O (stereo not drawn)
  0.4, /
Cn1cccc1Cc1nnc(SCC(=O)N2CCCc3ccccc32)n1C
  /, 5.0
COc1ccccc1C1CCN(C(=O)c2ccccc2C(F)(F)F)CC1
  0.5, /
CN(C)C(=O)CSc1nc2ccccc2c(=O)n1-c1ccccc1
  0.6, 4.0
O=C1COc2ccccc2N1Cc1c(F)cccc1Cl
  0.6, 20.0
O=C1CCCC2=C1C(c1ccco1)N(C(=O)c1ccccc1)c1ccccc1N2 (stereo not drawn)
  /, 10.0
CCOC(=O)c1ccc(N2CCN(c3cccc(Cl)c3)CC2)c(NC(=O)Nc2ccccc2)c1
  /, 1.0
Cc1nc2ccccn2c1-c1ccnc(SCC(=O)c2cccc(C(F)(F)F)c2)n1
  1.0, /
CCOC(=O)C1=NNC2C(=O)N(c3cc(Cl)ccc3OC)C(=O)C12 (stereo not drawn)
  -0.3, 4.0
CC(C)Cc1nnc(NS(C)(=O)=O)s1
  -1.2, 4.0
Cc1ccc2c(CN3CCC(C)CC3)cc(=O)oc2c1
  /, -8.0
CCN1C(=O)N/C(=C/c2ccc(OCC(=O)O)cc2)C1=O
  /, 1.0
O=C(CCc1ccccc1)N1CCN(c2nc3ccccc3s2)CC1
  /, 1.0
O=C(CN1CCN(Cc2ccccc2)CC1)NCc1ccco1
  0.6, -10.0
CCCc1c([N+](=O)[O-])cc(C(=O)O)cc1[N+](=O)[O-]
  -1.0, /
O=C(CNc1ccc(F)cc1)N/N=C/C1CC=CCC1 (stereo not drawn)
  /, -5.0
O=C(O)CCCC(=O)Nc1ccccc1-c1ccccc1
  -3.5, /
CC1CCC(NC(=O)c2ccccc2N)CC1 (stereo not drawn)
  -1.9, 5.0
O=C(O)C1C2C=CC(O2)C1C(=O)NCc1cccc(Cl)c1 (stereo not drawn)
  -1.1, /
COC(=O)c1ccc(NC2=NCCCCC2)s1
  /, -14.0
CCN(CC)c1ccc(C2C3=C(CC(C)(C)CC3=O)OC3=C2C(=O)CC(C)(C)C3)cc1
  18.0, 22.0
COc1cccc(C(=O)NCCc2csc3nc(-c4ccc(C)cc4)nn23)c1OC
  0.5, 2.0
O=c1c2nccnc2[nH]c(=S)n1CCc1c[nH]c2ccccc12
  2.7, 0.0
CCOc1ccc(S(=O)(=O)NCCO)cc1C
  -0.8, 2.0
CCC(C)SCc1cc(C(=O)O)oc1C (stereo not drawn)
  /, 12.0

The list continues:
Each structure is followed by: MgrA DNA FP, Sa helicase inh
NC(=O)C1CCN(c2ncc(Cl)cc2C(F)(F)F)CC1
  -0.4, /
COC(=O)CSc1nc(N)c(C#N)c(-c2ccccc2)c1C#N
  1.0, 12.0
COc1ccccc1C1OC(=O)C[C@H]1C(=O)NN (stereo partly drawn)
  1.1, /
CCOC(=O)Cc1csc(NC(=O)c2cc3c(=O)n4cccc(C)c4nc3n2C)n1
  /, -11.0
O=C(OCc1cc(Cl)cc2c1OCOC2)c1ccc(COc2ccccc2)o1
  /, -5.0
CCCNC(=O)Nc1ccc(Br)cc1F
  -0.5, 7.0

Among those listed so far, 9 have a COOH group.
Each structure is followed by: MgrA DNA FP, Sa helicase inh
O=C(O)CSCC(=O)NC1CCCCNC1=O (stereo not drawn)
  /, -29.0
O=C(O)C1CC(=O)N(CCc2c[nH]c3ccccc23)C1 (stereo not drawn)
  -1.4, /
CC1CCN(c2ccc3nnc(CCC(=O)O)n3n2)CC1
  /, 13.0
CC(NCc1ccc(OCc2ccc(F)cc2)cc1)C(=O)O (stereo not drawn)
  0.4, /
CCN1C(=O)N/C(=C/c2ccc(OCC(=O)O)cc2)C1=O
  /, 1.0
CCCc1c([N+](=O)[O-])cc(C(=O)O)cc1[N+](=O)[O-]
  -1.0, /
O=C(O)CCCC(=O)Nc1ccccc1-c1ccccc1
  -3.5, /
O=C(O)C1C2C=CC(O2)C1C(=O)NCc1cccc(Cl)c1 (stereo not drawn)
  -1.1, /
CCC(C)SCc1cc(C(=O)O)oc1C (stereo not drawn)
  /, 12.0
